Assay outcomes (PubChem BioAssay)
TRPML1 inh: qHTS for Inhibitors of the Human Mucolipin Transient Receptor Potential 1 (TRPML1). TRPML1-inducible cells, Ca2+ dye fluorescence, FDSS; active compounds read low; inhibition of EC80 agonist-evoked calcium signal. 390,000 compounds, 0.02% hits. Mucolipin-1 (Homo sapiens), Q9GZU1. activity change, negative = inhibition, % (no concentration beside the values); in the data active means activity change below about -50%; inconclusive means about -30% to -50%; inactive means above about -30%;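 note: stimulus is agonist 54-4 at its EC80 concentration; % is set by controls: 0 for no effect and ±100 for the full control effect; compound concentration not given in the record; the text of the record puts the active cut at -80%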
Target sequence (Q9GZU1 whole entry, looked up): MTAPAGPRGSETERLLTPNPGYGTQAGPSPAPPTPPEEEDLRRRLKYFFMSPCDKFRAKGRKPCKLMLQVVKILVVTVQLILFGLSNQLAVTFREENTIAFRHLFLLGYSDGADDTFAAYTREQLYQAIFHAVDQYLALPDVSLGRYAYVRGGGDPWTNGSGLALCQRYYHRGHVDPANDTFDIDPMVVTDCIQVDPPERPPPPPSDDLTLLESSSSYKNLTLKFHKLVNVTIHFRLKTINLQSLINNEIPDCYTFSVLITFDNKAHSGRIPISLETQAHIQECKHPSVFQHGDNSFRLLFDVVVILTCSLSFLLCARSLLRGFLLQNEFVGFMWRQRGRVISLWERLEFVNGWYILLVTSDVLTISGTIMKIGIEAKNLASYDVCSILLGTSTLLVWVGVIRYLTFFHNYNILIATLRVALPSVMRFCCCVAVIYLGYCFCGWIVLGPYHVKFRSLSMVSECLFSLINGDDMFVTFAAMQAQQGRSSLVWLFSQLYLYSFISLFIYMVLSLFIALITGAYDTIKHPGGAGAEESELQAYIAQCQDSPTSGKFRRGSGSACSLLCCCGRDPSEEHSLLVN
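TRPML1-DL cells, Tet-induced overnight (~16 h, 37 °C) at 1,500 cells/well, were loaded with Ca8 no-wash dye plus quencher for 45-90 min at room temperature. Compounds were pinned during FDSS kinetic reading; agonist 54-4 at EC80 (4 uM final) then added.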
PINK1 expr mod: A Quantitative High throughput Screen to Identify Chemical Modulators of PINK1 Expression; PINK1 immunofluorescence, high-content cytometry, 24 h; Potency, µM (titrated, usually from 76.6 µM), inactives show at the highest dose activation (PINK1 increase), most hits filed as activators; 410,000 compounds, 0.2% hits; AID 624263, 2012; active = well fitted activation curve with a large enough effect; inconclusive = small, poorly fitted or top-dose-only effect; inactive = flat fitted curve, though single readings scatter; cell line not stated here;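 note: potency is the fitted concentration of half-maximal effect; % of control where 0% means no effect; nearly all actives have a fitted effect of over 65% in size; a mitochondrial uncoupler was the plate control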
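Stable cell line treated 24 h with compounds at 5 concentrations (CCCP controls), then fixed and immunostained for PINK1 plus nuclear and cell stains; PINK1 immunofluorescence quantified by laser-scanning microplate cytometry.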
Menin-MLL FL inh: qHTS Assay for Inhibitors Targeting the Menin-MLL Interaction in MLL Related Leukemias: Competition With Fluorescein Labeled MLL-derived Peptide; Fluorescence polarization, fluorescein-MLL peptide displacement from menin; FP activity change, % at 61.4 µM; 290,000 tested, under 10 active; AID 1766, 2009; inconclusive = falling polarisation curve, or a change in total fluorescence; inactive = total fluorescence flat and polarisation flat or rising; no compound was filed as active; the % refers to the polarisation; negative = inhibition;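 note: % of control where 0% means no effect; inhibitors lower the polarisation; unlabelled MLL peptide was the positive control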
ClpP mod: qHTS Assay for Activators of ClpP. ATP-dependent Clp protease proteolytic subunit (Bacillus subtilis (strain 168)), P80244. purified B. subtilis ClpP, FRET peptide cleavage, 20 min. Potency, µM (highest dose often 57.5 µM), for inactives: at the highest dose activity change, negative = active. 340,000 compounds, 1.9% hits; active = well fitted falling curve with a large enough effect; inconclusive = small, poorly fitted or top-dose-only effect; inactive = no such curve, though single readings can be large or run the other way; note: potency is the fitted concentration of half-maximal effect; the source files actives as falling curves though it sought activators and does not explain the sign; nearly all actives have a fitted effect of over 65% in size; many hits overshoot -100%
Target sequence (P80244 whole entry, looked up): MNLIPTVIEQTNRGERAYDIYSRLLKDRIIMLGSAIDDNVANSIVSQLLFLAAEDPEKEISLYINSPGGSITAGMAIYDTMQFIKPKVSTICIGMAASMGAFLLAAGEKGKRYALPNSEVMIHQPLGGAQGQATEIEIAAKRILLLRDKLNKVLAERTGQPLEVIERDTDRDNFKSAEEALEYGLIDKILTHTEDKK
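Buffer: 100 mM Tris/HCl pH8, 100 mM KCl, 0.05% low protease BSA, 2.5% glycerol, 0.01% Tween-20. ClpP 10 microg/mL final; 20 min RT; delta FRET normalized to ADEP and DMSO controls.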
TRPV1 PAM: HTS Assay for Compounds that Act as Potentiators of the Vanilloid Receptor 1. potentiation, % at 8.33 µM. TRPV1-expressing cells, Fluo-8 calcium influx, capsaicin EC20 potentiation; host cell line not named in the record; control for the full effect not named in the record. Transient receptor potential cation channel subfamily V member 1 (Homo sapiens), Q8NER1. AID 540277, 2011. 320,000 compounds, 0.02% hits; active means potentiation above 80%; inconclusive means 30% to 80%; inactive means below 30%; note: 0% is about no effect
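Fluo-8 calcium influx in TRPV1-expressing cells, kinetic read (ex 480/em 520 nm). Compound added and read 3 min for agonist activity, followed by capsaicin at EC20 final and 2 min further read for enhancement.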
TRPML1 ag: qHTS for Agonists of the Human Mucolipin Transient Receptor Potential 1 (TRPML1); TRPML1-expressing cells, Ca2+ dye fluorescence, FDSS; host cell line not named in the record; reference of the full effect not given here; activation, % (test concentration not listed); 410,000 compounds, 0.12% hits; AID 624414, 2012; in the data active = activation above about 50%; inconclusive = about 30% to 50%; inactive = below about 30%; note: 0% is about no effect; the text of the record puts the active cut at 80%
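TRPML1-DL cells, Tet-induced overnight (~16 h, 37 degrees C), loaded 45-90 min at room temperature with Ca8 no-wash calcium dye plus quencher. FDSS fluorescence: 10 s baseline, compound pin-transfer, 110 s agonist read, then EC80 54-4 (4uM final) and 110 s antagonist read.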
Sfp inh: qHTS Assay for Inhibitors of Bacillus subtilis Sfp phosphopantetheinyl transferase (PPTase); 4'-phosphopantetheinyl transferase ffp (Bacillus subtilis), Q9F4F7; 310,000 compounds, 3.5% hits; Biochemical Sfp PPTase activity, qHTS; Potency, µM, inactives show max response, negative = inhibition, actives largely listed as inhibitors; active = well fitted inhibition curve with a large enough effect; inconclusive = small, poorly fitted or top-dose-only effect, or another doubt; inactive = no such curve, though single readings can be large or run the other way;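 note: the enzyme is Sfp with the accession as filed and its product quenches rhodamine fluorescence; potency is the fitted concentration of half-maximal effect; 0% = enzyme reaction without inhibitor and -100% = no enzyme wells; top concentration of the series not given in the record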
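After 15 min at room temperature with compound, 15 nM Sfp received 5 uM rhodamine-CoA plus 12.5 uM BHQ-2-ybbR (50 mM Hepes pH 7.6, 10 mM MgCl2). Rate came from the fluorescence difference over 30 min, ex 525/em 598 nm.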
An asterisk follows results filed as active; ? = inconclusive; . = not tested or not shown; & = joins results of further samples; [ ] = dose if it differs, or a comment.

mol	TRPML1 inh	PINK1 expr mod	Menin-MLL FL inh	ClpP mod	TRPV1 PAM	TRPML1 ag	Sfp inh
O=c1[nH]c2cc3c(cc2cc1CN(Cc1ccccc1)Cc1nnnn1Cc1ccco1)OCCO3	2.0	-0.5%	?	-15.6%	-11.8	1.7	11.2µM*
O=C(COC(=O)/C=C/c1ccc(F)cc1)Nc1ccccc1-c1ccccc1	5.5	1.8%	12.1	.	-9.6	5.4	-5.0%
CC1CC(C)CN(C(=O)CSCC(=O)O)C1 (configuration not stated)	.	0.7%	1.6	-0.1%	1.5	.	19.9%
COc1ccc(Cl)cc1C(=O)NCc1ccc2c(c1)OCO2	?	-0.5%	-0.1	.	7.9	-0.6	7.9%
NS(=O)(=O)c1cccc(NC(=O)COC(=O)Cn2cc(C(F)(F)F)ccc2=O)c1	8.7	1.1%	.	-1.3%	1.9	-0.8	.
CCN(CC)C(=O)c1cccc(-c2csc(C(O)c3ccc(OC)cc3)n2)c1 (configuration not stated)	.	-0.6%	.	-0.9%	.	-0.9	.
CCC(=O)NC(c1ccc(OC)cc1)c1cc(Cl)c2cccnc2c1O (configuration not stated)	-6.7	-0.7%&0.3%	0.2	-2.5%&-0.2%	9.4	3.2&3.2	4.8%
COc1cccc(Cn2c(=O)c(-c3ccccc3)nc3cnc(OC)nc32)c1	.	-0.2%	-4.2	.	.	.	5.4%
COCCCNC(=O)c1ccccc1Sc1ccc(NC(C)=O)nc1	-3.2	1.6%	0.0	.	21.1	-0.3	6.9%
Clc1ccc(-c2nc(N3CCCCC3)nc3ccccc23)cc1	71.6	1.9%	0.6	-6.2%	0.1	0.4	5.0%
Cc1cc(/C=C2/NC(=O)N(Cc3ccccc3F)C2=O)c(C)n1-c1ccccn1	-23.5	-1.5%	-9.7	.	-4.5	2.2	-16.9%
CCOC(=O)C(=O)N(C)c1c(CC)nc2c(OCc3cccc(Cl)c3)cccn12	10.7	1.3%	.	0.0%	.	-0.2	.
CCOC(=O)c1ccc(S(=O)(=O)N(CCO)Cc2cc3cc(OC)c(OC)cc3[nH]c2=O)cc1	-2.9	0.5%	-1.1	.	13.4	-0.3	4.8%
Cc1c(C=NNC(=O)c2ccc(Br)cc2)c2ccccn2c1C(=O)c1ccncc1	3.6	?	.	-1.7%	.	-0.8	.
CC(NC(=O)CCNS(=O)(=O)c1ccc2c(c1)oc(=O)n2C)c1ccccc1 (configuration not stated)	9.3	0.2%	5.0	0.9%	-6.6	-0.8	12.5%
Cn1c(Sc2ccc(Br)cc2)c(C=O)c2ccccc21	51.1	0.2%	1.2	-4.9%	6.0	1.2	-7.4%
O=C(Oc1ccccc1C(=O)N1CCOCC1)c1ccc(Br)cc1	-8.5	-8.2%[38.3 µM]	2.7	-4.0%	-9.7	-0.6	8.0%
COc1ccc(OC)c2[nH]c(=O)c(CCNC(=O)c3ccc(S(=O)(=O)N(C)C)cc3)cc12	17.1	-0.9%	3.3	-4.2%	4.9	-1.6	9.6%
Cc1nc2ccccc2c(=O)n1/N=C/c1ccccc1F	-2.6	1.0%	2.5	.	-0.8	1.7	11.9%
c1ccc(-n2c(Cc3cn4ccsc4n3)nnc2N2CCOCC2)cc1	29.7	2.7%[38.3 µM]	-1.0	-2.3%	-1.3	0.7	-7.5%
O=S(=O)(NCCc1c[nH]c2ccccc12)c1ccc(F)cc1	32.7	-1.5%	.	-1.1%	.	2.9	.
CCCCN1C(=O)C(=O)N(CC(=O)Nc2sc(C)c(CC)c2C(=O)OCC)C1=O	0.7	1.1%	.	.	-2.9	1.3	.
O=C(Nc1cc(N2CCOCC2)ncn1)NC1(C(F)(F)F)Oc2ccccc2O1	8.4	3.4%	0.4	-0.3%	7.0	-0.2	6.7%
CCc1ccc(C(O)c2ncc(-c3ccc4ccccc4c3)[nH]2)cc1 (configuration not stated)	.	7.2%	.	4.6%	.	-0.8	.
CCCCc1ccc(C2C(C#N)=C(N)SC(N)=C2C#N)s1	.	.	?	.	-7.9	.	56.2µM*
CCSc1nnc(NC(=O)CSc2nc3c(c(=O)n2-c2ccccc2)SCC3)s1	-8.1	3.4%[38.3 µM]	-1.3	-0.3%	-0.1	0.9	16.7%
Cc1ccc(N2CCN(C(=O)CNS(=O)(=O)c3ccc(Br)s3)CC2C)cc1 (configuration not stated)	-23.7	2.6%	0.2	3.1%	1.0	-1.4	5.7%
CC1(C)Cc2ccccc2-c2nnc(-c3ccccc3)n21	-6.9	.	3.7	-2.1%	0.6	-0.3	4.2%
CCN(CC)c1ccc(/C=C(\C#N)C(N)=O)cc1	-8.7	-0.7%	?	-0.8%	-8.3	7.3	9.8%
COc1cc(C2C(C#N)=C(N)OC3=C2C(=O)CC(C)(C)C3)c([N+](=O)[O-])cc1OC (configuration not stated)	4.2	-0.7%	?	-2.6%	-11.1	0.3	-26.1%
CC(=O)C1=CCC(c2ccc(Cl)cc2)N(S(=O)(=O)c2ccc(C)cc2)C1 (configuration not stated)	14.7	-0.1%&20.8%	.	-3.9%&1.0%	.	0.2&-0.3	.
COc1cccc(S(=O)(=O)N(C)C[C@H]2OCc3cn(nn3)CCCC(=O)N([C@H](C)CO)C[C@@H]2C)c1	8.4	0.1%	.	2.2%	.	-0.1	.
COc1ccc(CNC(=O)C(=O)NCC2CCCN2S(=O)(=O)c2ccccc2)cc1 (configuration not stated)	16.7	6.0%	.	.	8.9	-0.1	.
CCc1ccc(N=C2NC(=O)/C(=C/c3ccc(OCC(=O)O)c(OC)c3)S2)cc1	15.7	-1.7%	?	-3.2%	13.5	-0.9	11.9%
COc1ccc(C(=O)Nn2cnc3ccccc3c2=O)cc1[N+](=O)[O-]	-11.7	0.7%	5.2	-1.8%	2.4	1.1	-2.9%
O=C(C[C@@H]1C/C=C\CCCC(=O)OC[C@@H]2CCCN2C1=O)N[C@@H](CO)Cc1ccccc1	-0.7	2.1%	.	-0.1%	.	-0.7	.
C=COCCn1c(-c2nonc2N)nc2ccccc21	3.4	4.3%	1.5	-3.9%	-4.4	1.4	-11.3%
O=C(COc1ncnc2sccc12)N1CCN(c2ccccc2)CC1	-24.6	0.2%	9.5	0.0%	26.5	-0.7	-9.7%
CN(CC1COc2ccccc2O1)C(=S)Nc1ccccc1F (configuration not stated)	23.2	0.9%	-6.8	0.2%	-10.6	2.0	16.8%
CCC(NC(=O)Cc1c(C)c2cc3c(cc2oc1=O)OC(C)(C)CC3)C(=O)O (configuration not stated)	10.5	1.8%	-3.8	4.1%	-4.2	0.8	6.0%
NC(Cc1ccc(C(F)(F)F)cc1)c1csc(Nc2ccc(C(=O)c3ccccc3)cc2)n1 (configuration not stated)	.	-0.1%	.	-29.8%	.	0.0	.
O=c1c2cnn(-c3ccccc3)c2nc(-c2ccco2)n1-c1ccccc1	-0.5	-0.2%[38.3 µM]	3.7	-2.8%	-0.8	0.0	?
O=C(CSS(=O)(=O)O)N1CCN(C(=O)c2ccoc2)CC1	11.7	-0.6%	0.3	.	1.6	0.4	15.8µM*
Brc1ccc(-c2cn3nc4c(nc3n2)CCCC4)cc1	42.6	18.2%	?	-14.2%	-0.2	0.8	?
COc1ccc(C(=O)O)cc1NC(=S)NC(=O)C(c1ccccc1)c1ccccc1	-14.1	-1.0%	1.2	4.2%	10.7	-0.4	-5.9%
Cc1cccc(NC(=O)Cn2c([N+](=O)[O-])cnc2C)c1C	.	.	-0.9	.	?	.	-8.2%
O=C(NCC(c1cccnc1)N1CCN(c2ccc(F)cc2)CC1)c1ccco1 (configuration not stated)	36.8	-0.8%	-3.7	-5.2%	8.1	0.3	5.2%
COc1cccc(C(c2nnnn2C2CCCCC2)N2CCN(C/C=C/c3ccccc3)CC2)c1OC (configuration not stated)	.	?	.	-6.5%	.	0.4	.
COc1ccc(C(=O)NC2CC(C)(C)NC(C)(C)C2)cc1S(=O)(=O)N1CCOCC1	-3.7	-0.5%	.	-0.9%	.	0.0	.
Cc1ccc(Cl)cc1NC(=O)c1ccc(NC(=O)N2CCSc3ncccc32)cc1	36.6	-2.1%	.	31.6µM*	.	0.9	.
O=S(=O)(c1ccc(NC(=S)N2CCN(c3ccc(O)cc3)CC2)cc1)N1CCOCC1	-11.5	1.0%	6.8	.	-17.7	0.7	-17.8%
Cc1occc1C(=O)N1CCCc2ccccc21	8.3	1.6%	4.0	-2.5%	3.1	0.3	-3.2%
Cc1ccc(S(=O)(=O)NC(CC(C)C)C(=O)Nc2ccncc2)cc1 (configuration not stated)	4.8	0.1%	.	-0.8%	10.0	-1.1	.
CCc1nc2ccc(C(=O)NCCc3ccccn3)cn2c1N(C)Cc1nccs1	.	-0.7%	.	-0.7%	.	-1.0	.
Cc1ccc(S(=O)(=O)N2CCOCC2)cc1C(=O)OCC(=O)NCCc1ccc(F)cc1	3.1	-0.3%	.	-2.0%	.	2.9	.
COc1cc(C(O)c2nc3ccccc3n2C)cc(OC)c1OC (configuration not stated)	-16.7	0.2%	3.2	1.6%	28.2	0.6	12.5%

Random draw from the library (roughly 4.4% active in at least one column).
